# Screens: PubChem, National Center for Advancing Translational Sciences (NCATS)
# CtBP-E1A inh = blocks the CtBP interaction with E1A | AlphaScreen GST-E1A/His-CtBP binding, 1536-well; active compounds read low; control for the full effect not named in the record | activity change, % (no concentration beside the values) | actives 0.49% (n = 340,000); in the data active means activity change below about -65%; inconclusive means about -30% to -65%; inactive means above about -30%; also: % is scaled to controls: 0 for no effect and ±100 for the full control effect
#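 Protein mix (5X: 125 nM each GST-E1A, His-CtBP) was incubated with pinned compound 2 h at 37 deg C in dark, in 50 mM Tris pH 8.0 buffer with 300 mM NaCl. Glutathione donor and nickel acceptor beads followed; AlphaScreen signal read after 1 h.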
# Six1-Eya2 blk = Six1/Eya2 interaction inhibition | activity change, % (test concentration not listed) | actives 0.56% (n = 360,000) | AlphaScreen GST-Six1/His-Eya2 binding, biochemical; active compounds read low; control for the full effect not named in the record; in the data active = activity change below about -65%; inconclusive = about -30% to -65%; inactive = above about -30%; also: % is scaled to controls: 0 for no effect and ±100 for the full control effect
# Target sequence (O00167 whole entry, looked up): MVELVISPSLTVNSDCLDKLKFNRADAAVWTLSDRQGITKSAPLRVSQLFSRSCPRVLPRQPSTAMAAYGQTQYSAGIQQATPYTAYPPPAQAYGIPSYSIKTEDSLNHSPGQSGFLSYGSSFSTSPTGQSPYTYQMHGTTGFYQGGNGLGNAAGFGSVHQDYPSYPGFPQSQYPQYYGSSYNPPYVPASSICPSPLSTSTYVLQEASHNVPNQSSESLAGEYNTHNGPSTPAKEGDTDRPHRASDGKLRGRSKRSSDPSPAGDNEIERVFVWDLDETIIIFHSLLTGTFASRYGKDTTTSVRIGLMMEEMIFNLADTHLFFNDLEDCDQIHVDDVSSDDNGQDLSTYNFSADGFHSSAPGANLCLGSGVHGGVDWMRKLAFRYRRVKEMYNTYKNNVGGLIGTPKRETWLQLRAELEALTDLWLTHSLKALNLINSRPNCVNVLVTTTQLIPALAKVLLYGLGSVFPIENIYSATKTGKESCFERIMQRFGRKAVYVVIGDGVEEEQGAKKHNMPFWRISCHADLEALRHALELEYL
# Target sequence (Q15475 whole entry, looked up): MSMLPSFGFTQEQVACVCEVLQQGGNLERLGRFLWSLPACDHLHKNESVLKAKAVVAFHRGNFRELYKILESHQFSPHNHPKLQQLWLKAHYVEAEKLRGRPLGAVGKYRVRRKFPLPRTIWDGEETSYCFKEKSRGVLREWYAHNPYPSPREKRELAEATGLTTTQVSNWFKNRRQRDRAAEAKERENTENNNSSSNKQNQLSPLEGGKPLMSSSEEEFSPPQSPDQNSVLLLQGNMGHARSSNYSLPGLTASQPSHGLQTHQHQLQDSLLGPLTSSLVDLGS
#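 Homogeneous AlphaScreen proximity assay pairing GST-Six1 with His-tagged Eya2 (added as 5X mix: 250 nM and 500 nM) in 50 mM Tris pH 8.0, 300 mM NaCl, 1 mM TCEP. Glutathione donor and nickel acceptor beads; 1 h, 37 °C, dark.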
# D2 PAM = potentiates the human D2 dopamine receptor allosterically | DiscoveRx D2 beta-arrestin cells, luminescence, 90 min; 100% = 57 uM dopamine signal | potentiation, % (concentration not given with the values) | actives 0.23% (n = 360,000); active = potentiation of 50% or more; inconclusive = 30% to 50%; inactive = 30% or less;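 also: compound concentration not given in the record; tested on top of an EC20 dose of dopamine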
#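 D2 cells co-treated with compound plus 50 nM dopamine (EC20) for 90 min at 37 deg C to detect potentiation. Beta-arrestin recruitment was read as enzyme-fragment luminescence after 1 h at ambient temperature. Full response was set by 57 uM dopamine.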
# TRPML1 ag = activates the human TRPML1 channel; Q9GZU1; TRPML1-expressing cells, Ca2+ dye fluorescence, FDSS; host cell line not named in the record; reference of the full effect not given here; activation, % (no concentration beside the values); actives 0.12% (n = 410,000); AID 624414; in the data active = activation above about 50%; inconclusive = about 30% to 50%; inactive = below about 30%; also: 0% is about no effect; the text of the record puts the active cut at 80%
#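 Cells: TRPML1-DL, 1X Tet inducer, ~16 h at 37 degrees C/5% CO2. Dye: ABD Ca8 no-wash + quencher, 45-90 min RT. Read: 10 s baseline, compound add, 110 s agonist phase; 54-4 EC80 (4uM final), 110 s antagonist phase.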
# TRPV1 PAM = human TRPV1 potentiation | Q8NER1 | TRPV1-expressing cells, Fluo-8 calcium influx, capsaicin EC20 potentiation; host cell line not named in the record; control for the full effect not named in the record | potentiation, % at 8.33 µM | actives 0.02% (n = 320,000); active means potentiation above 80%; inconclusive means 30% to 80%; inactive means below 30%; also: 0% is about no effect
#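 Fluo-8 calcium influx in TRPV1-expressing cells, kinetic read (ex 480/em 520 nm). Compound added and read 3 min for agonist activity, followed by capsaicin at EC20 final and 2 min further read for enhancement.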
# TRPML1 blocker = blocks the human TRPML1 channel | TRPML1-inducible cells, Ca2+ dye fluorescence, FDSS; active compounds read low; inhibition of EC80 agonist-evoked calcium signal | activity change, negative = inhibition, % (test concentration not listed) | actives 0.02% (n = 390,000); in the data active means activity change below about -50%; inconclusive means about -30% to -50%; inactive means above about -30%;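 also: stimulus is agonist 54-4 at its EC80 concentration; % is scaled to controls: 0 for no effect and ±100 for the full control effect; compound concentration not given in the record; the text of the record puts the active cut at -80%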
#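 TRPML1-DL cells, Tet-induced overnight (~16 h, 37 °C) at 1,500 cells/well, were loaded with Ca8 no-wash dye plus quencher for 45-90 min at room temperature. Compounds were pinned during FDSS kinetic reading; agonist 54-4 at EC80 (4 uM final) then added.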
# * hit, by the source's call; ? = inconclusive; · = no result given.
# Start of the data: the first 4 records (preview)
SMILES,CtBP-E1A inh,Six1-Eya2 blk,D2 PAM,TRPML1 ag,TRPV1 PAM,TRPML1 blocker
CCOC(=O)C1=C(C)N=c2s/c(=C/c3ccccc3)c(=O)n2C1c1ccc(OC)c(OC)c1 (stereo not given),4,-5,-4,-0.8,15,-3
COc1ccc(OCC(=O)N2CCCC(CO)(CCOc3ccccc3)C2)cc1 (stereo not given),4,-1,3,-1.0,-20,21
NC(=O)C1CCN(C(=O)c2ccc3c(=O)n(Cc4cccc(Br)c4)c(=S)[nH]c3c2)CC1,-2,-6,-11,-1.4,-3,3
Cc1sc(NC(=O)c2ccccc2)c(C(=O)NC(C)C)c1C,6,4,-7,-0.1,-18,6

# Results (from the top)
SMILES,CtBP-E1A inh,Six1-Eya2 blk,D2 PAM,TRPML1 ag,TRPV1 PAM,TRPML1 blocker
CCOC(=O)C1=C(C)N=c2s/c(=C/c3ccccc3)c(=O)n2C1c1ccc(OC)c(OC)c1 (stereo not given),4,-5,-4,-0.8,15,-3
COc1ccc(OCC(=O)N2CCCC(CO)(CCOc3ccccc3)C2)cc1 (stereo not given),4,-1,3,-1.0,-20,21
NC(=O)C1CCN(C(=O)c2ccc3c(=O)n(Cc4cccc(Br)c4)c(=S)[nH]c3c2)CC1,-2,-6,-11,-1.4,-3,3
Cc1sc(NC(=O)c2ccccc2)c(C(=O)NC(C)C)c1C,6,4,-7,-0.1,-18,6
C[C@H](c1ccccc1)N1C[C@H](COCc2ccccc2)Oc2cc(N3CCC[C@H]3CO)ccc2S1(=O)=O,0,-3,·,-0.3,·,·
COc1ccc(N2CCN(S(=O)(=O)c3ccc4oc(=O)ccc4c3)CC2)cc1,-3,3,-2,-0.2,0,-7
CCN(Cc1nc2ccccc2c(=O)[nH]1)C(=O)c1cccc(S(=O)(=O)N2CCc3ccccc32)c1,-11,-7,-1,3.0,23,-24
Cc1ccc(S(=O)(=O)CNC(=S)c2cccc(Cl)c2)cc1,5,1,-26,2.7,-11,1
O=c1[nH][nH]cc1C=Nc1ccc(Cl)cc1,1,16,3,0.0,-15,2
CC1CCc2[nH]c3ccc(C(=O)NCCCOC(C)C)cc3c2C1 (stereo not given),-13,-6,-8,6.3,5,-2
O=C(NC(=S)Nc1nc(-c2ccc([N+](=O)[O-])cc2)cs1)c1ccco1,-4,-27,22,-0.5,13,-24
O=c1cc(O)n(C2CCCCCC2)c(=O)[nH]1,0,24,-5,1.0,10,-3
CCOC(=O)C1CCCN(C(=O)C2CCN(S(=O)(=O)c3cnc[nH]3)CC2)C1 (stereo not given),0,5,14,0.1,8,19
COc1ccc2nc(SC(C)C(=O)NC3(C#N)CCCCC3)[nH]c2c1 (stereo not given),-5,-7,-13,0.9,-1,31
O=C(N/N=C/c1cccnc1)c1ccc2c(c1)OCCO2,12,2,-3,0.2,22,34
CC1(C)CCc2nc(SCc3ccccc3)c(C#N)cc2C1,14,21,-8,0.6,-2,17
Cc1ccc(S(=O)(=O)N2CCCCC2)cc1NC(=O)COC(=O)Cc1cccc2ccccc12,6,3,-12,1.1,5,33
Cc1ccc(NC(=O)c2ccc3c(c2)NC(=O)CS3)nc1,-9,0,-13,2.1,-5,31
CC(C)c1ccc2nc(SCC(=O)NCC3CCCO3)c(C#N)cc2c1 (stereo not given),6,-3,-5,1.9,-10,1
CSc1ccc(/C=C(\C#N)C(=O)NC2CCCCC2)cc1,-4,7,-11,0.3,0,15
C/C(CCC1CC(C)OC1=O)=N\NC(N)=S (stereo not given),-14,-8,-2,0.1,24,28
O=C(COC(=O)Cc1ccc(F)cc1)NCc1ccco1,·,-7,-5,0.4,-8,-13
COc1ccc(COc2cccnc2N)cc1,7,-1,-6,0.3,-2,-11
NS(=O)(=O)c1cc(C(=O)OCC(=O)NC2CCCCCCC2)ccc1Cl,11,5,-1,-0.5,2,-4
COc1ccc(S(=O)(=O)Nc2cccc3c2O[C@H](CN(C)Cc2ccc(Oc4ccccc4)cc2)[C@@H](C)CN([C@H](C)CO)C3=O)cc1,-5,-11,0,0.1,·,-12
Cc1ccc(-n2nc3ccc(N)cc3n2)cc1Cl,-3,-1,-11,·,-7,·
Cc1nn(C)c(C)c1S(=O)(=O)Nc1ccc2c(c1)OCO2,3,-4,-5,1.0,-3,6
CS(=O)(=O)c1ccc(Cl)c(NC(=O)Cc2ccsc2)c1,7,4,-5,-0.2,-10,2
CC(C)Cn1nc(NC(=O)c2ccco2)c2cc3ccccc3nc21,15,28,3,3.5,-21,-10
COc1ccc2cc(C(=O)C3CCCN(C(=O)c4cnn(C(C)C)c4)C3)ccc2c1 (stereo not given),-3,-3,-8,0.4,-24,6
NC(CSCc1ccccc1)C(=O)Nc1ccc([N+](=O)[O-])cc1 (stereo not given),-12,-3,-4,-0.4,·,·
CCc1cc(=O)[nH]c(SCC(=O)Nc2cc(C)on2)n1,2,-9,-3,-0.3,4,-5
O=C(COc1ccc(/C=N/NC(=O)CSCc2ccc([N+](=O)[O-])cc2)cc1)NCc1ccco1,-14,-1,-4,0.7,-14,-10
Cc1csc(=O)n1CC(=O)OCC(=O)NC(C)c1ccc(F)cc1 (stereo not given),8,0,0,-0.8,5,2
CC(C)(C)S(=O)(=O)N1C[C@H]2C(=CC[C@@H]3C(=O)N(c4ccccc4)C(=O)[C@@H]32)[C@H]1CCO,2,6,·,-0.7,·,-7
Oc1ccccc1/C=N/Nc1ccccc1,0,-15,-2,-0.6,1,7
Cn1c(=NC(=O)CSCC(=O)N2CCOCC2)sc2ccccc21,2,6,10,0.6,-3,-2
Cc1nc(SCc2ccc(C#N)cc2)n[nH]1,·,-1,-4,-0.4,-2,13
CCCCn1c(SCC(=O)Nc2cc(C)[nH]n2)nc2ccsc2c1=O,-5,-1,-10,1.3,6,-4
COc1ccc(OC)c(NC(=O)Cn2c(CCC(=O)O)ccc2-c2cccs2)c1,-6,-6,-5,0.4,-5,-8
Cc1cc(F)ccc1-c1cc(C(=O)NCc2cccc(C(F)(F)F)c2)[nH]n1,3,4,-11,0.5,·,·
CC(C)N(C(=O)Cn1cc(SCC(=O)NCc2ccco2)c2ccccc21)C(C)C,3,0,-6,-0.1,0,5
CCOc1ccc(NC(=O)CN(Cc2ccccc2)S(C)(=O)=O)cc1,3,4,15,-1.0,19,4
CCCCOC(=O)c1ccc(-c2ccc(/C=N/NC(=S)NCC)o2)cc1,-5,2,-10,0.3,12,2
Cc1cccc(C)c1NC(=O)CC(NCCc1ccccc1)C(=O)O (stereo not given),0,1,-11,-0.6,-2,-4
CCOC(=O)C1CCN(c2c(NCCC(C)C)c(=O)c2=O)CC1,0,-8,-11,·,21,·
CNN/C(N=Cc1ccc([N+](=O)[O-])s1)=N\S(=O)(=O)c1cc(C)c(Cl)cc1SCc1ccccc1,-15,-16,?,0.6,·,-3
C=CCN(C(=O)c1ccccc1)C1CCS(=O)(=O)C1 (stereo not given),4,6,-4,-0.1,0,-16
CC1CCN(S(=O)(=O)c2cc3c4c(c2)CCN4C(=O)CC3)CC1,6,4,-21,-0.2,3,-3
CC(=O)Nc1ccc(NC(=O)C2CCN(C(=O)NC3CCCCC3)CC2)cc1,6,5,2,0.0,-11,0
CCOC(=O)C(C)Sc1ncnc2c1nnn2-c1ccc(F)cc1 (stereo not given),3,0,-2,0.4,-4,51
Cc1ccc(NC(=O)/C=C\C(=O)O)c([N+](=O)[O-])c1,-1,-1,-16,-0.3,-1,-9
CC(C)c1ccc(S(=O)(=O)c2ccc(NN)cc2)cc1,12,6,8,0.5,-3,1
C=CCOC(=O)C1=C[C@@H](c2csc3ccccc23)C[C@@H](OCc2ccc(CO)cc2)O1,-1,-8,3,-0.3,-21,3
CCC1=NN2C(=N)/C(=C\c3ccc(SCc4ccco4)o3)C(=O)N=C2S1,0,-23,-6,9.7,3,-14
COc1ccc(C2SCCN2C(=S)Nc2ccc(F)cc2)cc1 (stereo not given),3,-8,-13,0.1,-10,-4
COc1cc(CNCCN2CCOCC2)ccc1OCc1ccc(Cl)cc1Cl,-4,-8,-14,0.1,4,-1
Nc1ccc2oc(=O)c3ccccc3c2c1,-2,-12,-3,1.1,-7,39
Cc1ccc(NC(=O)CSCC#N)cc1,1,2,0,0.2,-7,-10
CCCn1nnnc1SCC(=O)NCc1ccc2c(c1)OCO2,7,3,9,0.7,11,-14

# Additional records follow.
SMILES,CtBP-E1A inh,Six1-Eya2 blk,D2 PAM,TRPML1 ag,TRPV1 PAM,TRPML1 blocker
COC(=O)CN1C(=O)[C@H]2[C@@H](c3ccc(C)o3)N3C(=O)CN(CC4CC4)C(=O)[C@@]3(C)[C@H]2C1=O,11,3,-12,0.4,11,-14
COc1ccc(C2NS(=O)(=O)N=C2N)cc1 (stereo not given),·,-2,-5,3.1,13,-4
CN(C)C(=O)CCSc1nnc(-c2ccncc2)o1,-7,3,0,-1.0,21,4
COc1cccc2cc(CC(=O)c3cc(C)ccc3C)c(=O)oc12,·,-4,-9,4.1,-1,13
O=S1(=O)CC(N2CCC(Cc3ccccc3)CC2)CN1Cc1ccccc1 (stereo not given),0,-8,-5,-0.6,·,·
C[C@@H]1CN([C@@H](C)CO)C(=O)CCCn2nncc2CO[C@@H]1CN(C)C(=O)C1CCCCC1,-5,0,-2,0.1,·,-11
Cc1cc(C)n(-c2ccc(Cl)c(C(=O)OCC(N)=O)n2)n1,2,-1,-17,-0.3,15,0
Cc1ccc2c(c1)N(CC(=O)NCCCc1ccccc1)C(=O)c1cccnc1O2,5,-1,12,0.7,0,7
COc1ccc([C@H]2CC(=O)C=C(c3cccc4c3Oc3ccccc3S4)C2)cc1OC,-14,-23,3,-0.7,10,1
COc1ccccc1CNC(=O)COC(=O)Cc1c(Cl)cccc1Cl,4,3,0,1.3,-8,-16
Cc1nc2nc(C(F)(F)F)[nH]c2nc1C,5,1,13,-0.1,·,-5
CN(C)S(=O)(=O)c1ccc(C(=O)NC(=O)CSc2nnnn2C)cc1,-2,-3,-4,-0.3,·,-9
CCC(C)(C)n1nnnc1C(c1cc2ccc(OC)cc2[nH]c1=O)N1CCN(C2CCCCC2)CC1 (stereo not given),1,0,-8,1.9,-6,-4
C/C(=N\NC(=O)c1cccc(Br)c1)c1cccnc1,-13,-6,-4,-0.4,-8,12
O=C(O)CC(c1ccccc1)n1cccc1 (stereo not given),2,1,-12,-0.3,6,-7
O=C(CSc1ccccn1)Nc1ccccc1F,3,-6,9,0.3,0,-9
COc1ccc(S(=O)(=O)Cc2ccc(C(=O)N3CCc4ccccc4C3)o2)cc1,1,-1,-1,0.3,-3,20
Cc1cc2nnc(SCC(=O)NC3CCCCC3)n2c(N)n1,0,-9,-4,0.6,9,-11
Cc1c(C(=O)N2CCCC2)c(S(=O)(=O)N2CCCCC2)c(C)n1C,-8,4,-2,-0.2,-2,24
COc1ccc(N(CC(=O)Nc2ccccc2C)S(=O)(=O)c2c(C)[nH]c(=O)[nH]c2=O)cc1,-4,-3,-8,1.5,27,48
